Source: PubChem BioAssay
NPYLR7 agonist = agonists of mosquito NPYLR7 receptor, primary screen, cell-based, Aedes aegypti, calcium fluorescence, mosquito biting behavior; Aedes aegypti neuropeptide Y-like receptor 7 (NPYLR7); HEK293T NPYLR7/Galpha15, GCaMP6s calcium fluorescence; activation, % at 10 µM; 0.15% of 270,000 active; AID 1259423, 2018; in the data active = activation above about 40%;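 note: 0% = vehicle and 100% = reference agonist at the receptor; some compounds past the cut are filed as inactive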
NPYLR7 agonist max-min = also measured in NPYLR7 agonist; calls as there; activation, %; measured here: Max-Min RFU normalised activation; some inactives read as strong as hits;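 span of the calcium signal over five minutes; 0% = vehicle and 100% = native peptide agonist; compound fluorescence can raise it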
Active calls of the source: *; & = joins results of further samples. Some of the compounds tested; rates above refer to the full screens.

structure | NPYLR7 agonist | NPYLR7 agonist max-min
CCC(C(=O)Nc1cc(Br)c(=O)n(C)c1)c1ccccc1 (stereo not given) | -22 | -23
COc1ccc(Cl)cc1NC(=O)c1cccnc1N(C)C | 5 | 2
Cc1ccc(NC(=O)CNCCOc2ccccc2)c(C)c1 | 4 | -1
COc1cccc(-c2cc(C(=O)N3CCN(C(=O)Nc4cccc(Br)c4)CC3)c(C)n2-c2ccccc2)c1 | 6 | 6
COc1ccc(C2NC(=O)N(C)C(C)=C2C(=O)OCCc2ccccc2)cc1 (stereo not given) | -16 | -25
O=C(NCCc1csc2nc(-c3ccc(F)cc3)nn12)c1cccc(F)c1 | 6 | 3
COC(=O)c1ccc(-c2noc(CN3CC=CC3)n2)cc1 | 0 | 17
COc1cccc(CNC(=O)C2CCN(C(=O)[C@@H]3CCCN3C(=O)Nc3c(Cl)cccc3C(F)(F)F)CC2)c1 | 15 | 13
Cc1ccc(C)c(CSc2nncn3c2cc2oc(C)cc23)c1 | 4 | 0
CCc1nc(N)sc1C(=O)NCc1ccc2c(c1)n(C)c(=O)n2C | 4 | 2
Cc1ccccc1NC(=O)N1CCC2(CC1)SCCN2C(=O)CC(C)C | 7 | 6
CCOC(=O)c1cc(-c2ccccc2C)n(-c2ccc(C(=O)NCCCOC)cc2)n1 | 1 | -2
O=C(c1ccc2c(c1)OCO2)N1CCCC(OCc2ccc(F)cc2F)C1 (stereo not given) | -3 | -1
O=C(Cn1cnc2sccc2c1=O)Nc1nc(-c2ccccc2Cl)cs1 | 0 | -6
COC(=O)c1cccc(C(=O)NC(C)c2ccc(O)c(F)c2)c1 (stereo not given) | -6 | -7
CCc1nc2ccc(C(=O)NCCCN3CCCC3=O)cn2c1N(CC)C(C)=O | -9 | -14
Clc1cccc(CNc2cc(-c3ccccc3)nc3ncnn23)c1Cl | 25 | 12
Cc1ccc2oc(-c3ccc(NC(=O)c4ccc([N+](=O)[O-])c(C)c4)cc3O)nc2c1 | -4 | -9
CCN(CC)c1onc(-c2ccccc2)c1CN(CCOC)C(=O)c1cccc(Br)c1 | 5 | 5
CN1Cc2cc(-c3cc(NCCO)nc4[nH]ccc34)ccc2NC1=O | 0 | -3
COc1ccc(CNC(=O)CCC2CCCN(C(=O)/C=C/c3cnc[nH]3)C2)c(OC)c1 (stereo not given) | -1 | -7
CC(C)(C)n1nc(C2CC2)cc1C(=O)NCC1Cc2ccccc2O1 (stereo not given) | 1 | -2
CC(=O)Nc1ccc(C(=O)CSc2nnc(-c3ccco3)n2C)cc1 | 16 | 6
Clc1ccccc1-c1noc(C2CCCCC2)n1 | -9 | -18
CC1CCCCN1CCCNC(=O)c1cc(-c2cccs2)nn1-c1ccc(Cl)cc1 (stereo not given) | -2 | 0
CCCNC(=O)C(C)NC(=O)c1cc(S(=O)(=O)N(C)C)ccc1C (stereo not given) | 5 | 0
CCOC(=O)CNC(=O)N1CCN(C(=O)c2cc(-c3cccc(OC)c3)n(-c3ccccc3)c2C)CC1 | 0 | 6
COc1ccc(NC(=O)CSc2nc(C)cc(C)c2C#N)cc1 | -3 | -12
Cc1ccc2nc(N3C(=O)CCC3=O)sc2c1 | 7 | 1
O=C(OCc1cc(=O)n2cc(Br)ccc2n1)c1ccco1 | 0 | 2
COc1ccc(CN2CCN(C(=O)Nc3ccccc3)CC2)c(OC)c1OC | 1 | 5
Cc1cccc(-c2nc3c(NCc4ccccn4)nccc3[nH]2)c1 | -7 | -9
COc1cc(OC)cc(-c2nnc(SCc3ccc(C#N)cc3)o2)c1 | 5 | 4
COC(=O)c1ccc(NC(=O)Cn2cc(OC)c(=O)cc2CSc2nc(C)cc(C)n2)cc1 | -2 | -9
COc1ccc(CCNS(=O)(=O)c2ccc3c(c2)CC(=O)N3C)cc1OC | 2 | -1
CC(C)OC(=O)C(NC(=O)c1ccccc1)=C1CCCCC1 | -1 | 5
COCc1cc(C)nc2sc3c(c12)N1C(=O)c2ccccc2C1NC3=O (stereo not given) | -3 | -5
COC(=O)c1ccc(Oc2ccc(C(=O)OC)cc2)cc1 | 10 | 12
COc1ccc(S(=O)(=O)Nc2ccc3nc(N4CCCC4)sc3c2)cc1NC(C)=O | 10 | 15
Clc1ccc(C=NN2CCN(Cc3ccc(Cl)cc3)CC2)cc1 | -3 | -2

Among those listed so far, these contain a furan ring, fused or not.
structure | NPYLR7 agonist | NPYLR7 agonist max-min
Cc1ccc(C)c(CSc2nncn3c2cc2oc(C)cc23)c1 | 4 | 0
CC(=O)Nc1ccc(C(=O)CSc2nnc(-c3ccco3)n2C)cc1 | 16 | 6
O=C(OCc1cc(=O)n2cc(Br)ccc2n1)c1ccco1 | 0 | 2

Sorted by SMILES length (largest number first): 3 of the compounds above
structure | NPYLR7 agonist | NPYLR7 agonist max-min
COc1ccc(CN2CCN(C(=O)Nc3ccccc3)CC2)c(OC)c1OC | 1 | 5
Cc1ccc2nc(N3C(=O)CCC3=O)sc2c1 | 7 | 1
Clc1ccccc1-c1noc(C2CCCCC2)n1 | -9 | -18

Further results.
structure | NPYLR7 agonist | NPYLR7 agonist max-min
Cc1cccc(C(C2Sc3nc(C)nn3C2=O)N2CCC(C(N)=O)CC2)c1 (stereo not given) | -6 | -9
Cc1c(Cl)c(C(F)(F)F)nn1CC(=O)Nc1ccc(F)cc1F | -7 | -10
CCOC(=O)N1CCC(NC(=O)C2CC23CCN(C(=O)CCC(=O)c2ccc(F)cc2)CC3)CC1 (stereo not given) | 17 | 4
Cc1cc(C)n2nc(SCc3cc(=O)n4cc(Br)ccc4n3)nc2n1 | 21 | 23
CC1CCC2(CC1)NC(=O)N(C(C)C(=O)N1CCc3ccccc3C1)C2=O (stereo not given) | -1 | -4
CC(C)C(C)NC(=O)c1cc(-c2ccccc2F)nc2cc(-c3ccccc3)nn12 (stereo not given) | 15 | 12
COc1cc(OC)cc(C(=O)Nc2nc3c(Cl)c(Cl)ccc3s2)c1 | 18 | 14
O=S(=O)(/C=C/c1ccccc1)NCCSCc1ccccc1 | 1 | -1
Cc1[nH]c(=O)c(C#N)c(C)c1CCc1nc(-c2ccccn2)no1 | 0 | -2
Cc1ccc(S(=O)(=O)NC(=O)c2ccccc2)cc1C(C)C | -17 | -19
CNC(=O)[C@@H]1C[C@H](N)CN1C(=O)c1cc(-c2ccccc2)nc2ccccc12 | 4 | 2
CC(C)CC1c2[nH]c3ccccc3c2CCN1Cc1cccnc1 (stereo not given) | 10 | 6
CSc1ccccc1NC(=O)CN(C)C(C)C(=O)Nc1cccc(C#N)c1 (stereo not given) | -1 | -3
CN(CCc1ccccn1)C(=O)c1cc(CN2CCOCC2)on1 | -3 | -3
COCc1nc(N2C[C@@H](C)O[C@@H](C)C2)c2cnn(C)c2n1 | -1 | -5
CC1CN(c2cc(Cl)nc(SCC(=O)NC3CCN(Cc4ccccc4)CC3)n2)CCN1C(=O)c1ccc(F)cc1 (stereo not given) | 5 | 14
CCOC(=O)c1csc(CN(CCCOC)C(=O)Nc2cccc(C#N)c2)n1 | 18 | 17
c1ccc(CCn2cnnc2CNC2CCC3(CCNCC3)CC2)cc1 | 6 | 3
CC1(C)S[C@@H]2[C@H](NC(=O)C(C(=O)O)c3ccccc3)C(=O)N2[C@H]1C(=O)O (stereo not given in full) | -6&1 | -10&1
CC(=O)NCCNc1cc(N2CCCC2)nc(C)n1 | 2 | 1

Reprinted from the listing (two entries):
structure | NPYLR7 agonist | NPYLR7 agonist max-min
Cc1c(Cl)c(C(F)(F)F)nn1CC(=O)Nc1ccc(F)cc1F | -7 | -10
CCOC(=O)N1CCC(NC(=O)C2CC23CCN(C(=O)CCC(=O)c2ccc(F)cc2)CC3)CC1 (stereo not given) | 17 | 4

Following part.
structure | NPYLR7 agonist | NPYLR7 agonist max-min
Cc1nnc(SCC(=O)N2CCC(C(O)C(C)C)CC2)s1 (stereo not given) | -1 | -9
COc1cccc(CN(CC(O)Cc2ccccc2)CC2CC(c3ccc(Cl)cc3)=NO2)c1 (stereo not given) | -2 | 2
CCOC(=O)c1nnn(C(CC)C(=O)Nc2cc(C)ccc2C)c1C(=O)OCC (stereo not given) | -6 | -12
CNC(=S)Nc1cc2c(cc1Br)OCCO2 | 2 | 4
O=C(CCCC(=O)N1CCCC1c1nnc2c(C(F)(F)F)cccn12)c1ccccc1 (stereo not given) | -8 | -13
O=C(c1ccc2[nH]c3c(c2c1)CCCC3)N1CCOC2(CNCCOC2)C1 (stereo not given) | 3 | 3
CSCC(=O)N(C)C1CCCN(Cc2ccccc2F)C1 (stereo not given) | 1 | 0
CN1C(=O)/C(=C/C=C2/SCCN2C)OC1=S | 21 | 22
COCCN(Cc1ccc(F)cc1Cl)c1cc(Cl)nc(N)n1 | 8 | 7
CCCn1ncc(NC(=O)c2ccc(CN3CCNCC3(C)C)cc2)n1 | 0 | 0
C1=CC2C(C1)CC2NCCc1nnc2ccccn12 (stereo not given) | 6 | 4
Cc1nnc(SCCn2c(N3CCCCC3)nc3c2c(=O)[nH]c(=O)n3C)s1 | 4 | 0
COc1ccc(NC(=O)CSc2nc3c(-c4ccccc4)c[nH]c3c(=O)n2C2CC2)cc1 | -1 | -4
CN1C(=CC=NNc2ccccn2)C(C)(C)c2ccccc21 | 0 | -2
O=C(c1csc(CSc2nnc(Cc3ccccc3)n2-c2cccc(Cl)c2)n1)N1CCOCC1 | -2 | -6
Cn1cnc(SCC#CCSc2ncn(C)n2)n1 | 13 | 6
COc1ccc(C(=O)N2CCC(c3ccc(F)cc3)CC2)c(OC)c1 | -5 | -7
Cc1cccn2c(=O)nc(SCc3ccc(F)cc3)nc12 | 9 | 6
CCC1CCCCN1Cc1nc2c(c(=O)n(C)c(=O)n2C)n1CCc1ccccc1 (stereo not given) | -15 | -15
CCn1c(C)c(C)n2c3c(=O)n(Cc4cc(C)ccc4C)c(=O)n(C)c3nc12 | 10 | 8

Exported with two lines to a compound: two of the compounds above
Fields: NPYLR7 agonist, NPYLR7 agonist max-min
CCC(C(=O)Nc1cc(Br)c(=O)n(C)c1)c1ccccc1 (stereo not given)
    -22, -23
CN1C(=CC=NNc2ccccn2)C(C)(C)c2ccccc21
    0, -2

Other structures
structure | NPYLR7 agonist | NPYLR7 agonist max-min
Cc1cc(N2CCOC(CN)C2)nc(-c2ccccc2)n1 (stereo not given) | 12 | 3
COCCCNC(=O)c1csc(CN(CCCOC)C(=O)Nc2ccc(Br)cc2)n1 | -10 | -19
O=C(NCCOc1ccc2nnc(-c3cccc(F)c3)n2n1)c1cccs1 | -4 | -7
Cc1ccc(CN(Cc2ccc(F)cc2)C(=O)CN(Cc2ccco2)C(=O)CCc2ccccc2)s1 | -1 | -11
CCCCc1ccc(-n2c(C)cn3c4c(=O)n(CCOCC)c(=O)n(C)c4nc23)cc1 | 21 | 19
Fc1ccc(-c2nccn2CCCc2nn[nH]n2)c(Cl)c1 | 0 | 13
COCCN(CC(=O)Nc1cc(-c2ccccc2)nn1-c1ccc(C)cc1)C(=O)c1cc([N+](=O)[O-])cc([N+](=O)[O-])c1 | 1 | 6
O=C(c1cn(-c2ccccc2)nn1)N1CCN(CCn2cncn2)CC1 | 0 | 1
Cn1ccnc1C(NC(=O)Cc1ccccn1)C1CC1 (stereo not given) | 10 | 9
O=C(NCCc1ccc(F)cc1)c1csc(-c2ccc(O)cc2)n1 | 0 | -1
O=C1[C@H]2C[C@H]2C(=O)N1CCNc1ccc([N+](=O)[O-])cn1 | 12 | 8
OCCn1ccnc1-c1ccc(SC2CCCCC2)o1 | 20 | 6
Cc1ccc(C(C)NC(=O)C2CCCN2Cc2ccccc2)s1 (stereo not given) | 7 | 2
Brc1cc2c(cc1Cn1nnc(-c3cccs3)n1)OCO2 | -6 | -7
Cc1noc(C2CCCN(CN3C(=O)OCC3c3ccccc3)C2)n1 (stereo not given) | 4 | -1
O=C1NC(c2ccccc2)=C(C(=O)C(F)(F)F)C(c2ccccc2I)N1 (stereo not given) | -5 | -10
Cc1cc(C)n(-c2ccc(N3CCN(C(=O)c4ccc(C(F)(F)F)cc4)CC3)nn2)n1 | -1 | -7
COc1cc(CN2CCc3c(cc(-c4ccc(F)c(C)c4)c(=O)n3C)C2)cc2c1OCO2 | 21 | 4
COc1cccc(Cc2nsc(N(CC(=O)Nc3ccc(C)c(C)c3)Cc3ccccc3)n2)c1 | 22 | 23
C/C(=C/C(=O)N(CCC#N)CCC#N)c1ccccc1Cl | 2 | 1
CCC(CC)C(=O)N(C)c1c(C)nc2ccc(C(=O)NCCCN3CCCC3=O)cn12 | 15 | 8
COc1ccccc1C(NC(=O)C1CCN(CCCc2ccccc2)CC1)c1ccccn1 (stereo not given) | -10 | -6
CCN(CC)c1ccc(CN2CCCn3cccc3C2c2cc(F)ccc2F)cc1 (stereo not given) | 2 | 13
COc1ccccc1OCCN1CCC(C(=O)NC(c2ccc(Cl)cc2)c2ccccn2)CC1 (stereo not given) | 2 | 0
CCn1nnc2c(N(C)Cc3ccccc3)ncnc21 | 9 | 2
O=C(Cn1cnc2c(nnn2-c2ccc(F)cc2)c1=O)N1CCCC1 | 3 | 6
CCCc1ccccc1NC(N)=S | 3 | 12
COCc1c(Br)c(C)nc(OCC(=O)N/N=C\c2cc3c(cc2[N+](=O)[O-])OCO3)c1C#N | 16 | 25
Cc1ccc(CN(C(=O)c2ccc3c(c2)ncn3CCO)C2CCCC2)s1 | 11 | 12
CC1C(=O)N(c2ccc(Cl)cc2)CCN1C(=O)c1cccc(Br)c1 (stereo not given) | -4 | 3
